# Sa RN4220 lethal – S. aureus RN4220 growth inhibition | inhibition, % (no concentration beside the values) | 0.33% of 330,000 active | OD600, 16 h;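 active = z-score of -3 or lower and OD600 up to 0.18 on both plates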;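 note: plate controls were untreated cells for no effect and reference antibiotic for full effect; stock transfer was 100 nL into about 80 µL; one replicate is shown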
# Sa ugtP lethal – growth inhibition of S. aureus ugtP deletion strain; S. aureus RN4220 ugtP deletion, OD600 growth, 16 h; some inactives read as strong as hits; growth inhibition, % (concentration not given with the values); 0.54% of 330,000 active;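 active = z-score under -3 and OD600 up to 0.15 on both plates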;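 note: plate controls were untreated wells for no effect and antibiotic for full effect; wells of about 80 µL received 100 nL stock; the first replicate is given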
# BJeLR lethal – BJeLR cell viability loss. AID 1554. 0.17% of 300,000 active. BJeLR (HRASV12) viability, CellTiter-Glo ATP luminescence, 48 h; reference of the scale not given here. inhibition, % (concentration not given with the values);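 active = replicate mean above 50%; inconclusive = above 50% but judged a plate artefact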;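 note: 50 nL library stock added to about 25 µL; numbers are from one replicate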
# Bead autofluor – flagged as autofluorescent in microsphere protease counterscreen. fluorescence intensity (test concentration not listed). AID 624483. 3.1% of 360,000 active. compound autofluorescence counterscreen, microsphere flow cytometry; active compounds read high;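 active = at least 3 SD above the mean of all compounds, about 16000 in these data; inconclusive = too few beads counted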;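 note: 100 nL of 1 mM stock went into each well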
# PrP UTR inh – inhibition of PrP 5' UTR reporter expression; cell-based PrP 5' UTR mRNA reporter, plate reader; inhibition, % (no concentration beside the values); 0.35% of 340,000 active;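 active = every replicate at 50% or more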;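 note: 0 = median of the neutral control wells; tested in H4 reporter cells; numbers are from one replicate; inactives centre near -14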
# Mtb hypoxia rep – reduces hypoxia-regulated biosensor signal in M. tuberculosis; M. tuberculosis hypoxia-regulated fluorescent reporter, fluorescence; fluorescence inhibition, % (test concentration not listed); 0.1% of 300,000 active; AID 1159583;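 active = 35 to 45% if threefold the growth effect, above 45% if 1.5-fold the growth effect; inactive = the rest, general growth blockers included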;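 note: wells of about 50 µL received 100 nL stock; 0% = vehicle wells and 100% = reference inhibitor wells; whole bacteria with a GFP reporter of the hypoxia response; strong numbers were not always called active; many hits fall short of the cut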
# Mtb hypoxia rep growth – also measured in Mtb hypoxia rep; calls as there; growth inhibition, %; measured here: M. tuberculosis growth (absorbance);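 0% = vehicle and 100% = reference antibiotic; read after six days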
# * hit, by the source's call; ? = inconclusive; · = no result given.
SMILES,Sa RN4220 lethal,Sa ugtP lethal,BJeLR lethal,Bead autofluor,PrP UTR inh,Mtb hypoxia rep,Mtb hypoxia rep growth
CC(C)S(=O)(=O)c1cnc(N2CCOCC2)nc1N,2.6,8,-5,4412,-17,16,5
Cc1oc2ccc(OCc3c(F)cccc3Cl)cc2c1C(=O)O,14,10,-3,?,-20,8,4
CCc1noc(C)c1C(=O)NNC(=O)COc1ccc(C)cc1,0.7,0,7,?,-7,-6,18
COc1ccc(CNc2ccc([N+](=O)[O-])cc2C)cc1,3.8,6,-3,·,-26,-4,4
N#CCCN(C(=O)COC(=O)c1cc(S(=O)(=O)N2CCOCC2)ccc1Cl)c1ccc(F)cc1,3.5,5,6,?,-23,11,7
O=C1CNC(=O)/C1=C/c1ccc(Br)cc1,-2.5,-7,-1,3735,-14,1,11
NS(=O)(=O)c1ccc(CCNC(=O)c2ccc(-c3ccccc3)cc2)cc1,1.7,-1,-3,3615,-20,9,2
CC1CCCCC1NC(=O)c1cc2c(=O)n3ccccc3nc2n1C (stereo not drawn),3.3,5,3,5061,-36,9,9
C=CCn1c(Cc2ccc(OC)cc2)nnc1SCC(N)=O,5.3,2,-16,22116*,5,9,4
CSC1=N/C(=C/c2ccc(-n3cncn3)cc2)C(=O)N1,1.1,-3,-8,5106,-15,-3,6
O=C1CC(c2ccccc2)CC2=C1C=Nc1ccccc1N2 (stereo not drawn),1.6,-2,12,3420,-25,0,4
CCOC(=O)/C=C1\NC(=O)CS1,-8.9,-5,4,3363,-23,1,9
COc1ccc(/C=C2\SC(=S)N(CC(=O)NC3CCS(=O)(=O)C3)C2=O)cc1 (stereo not drawn),6.4,-6,-6,5874,-9,-5,8
Cc1csc(NC(=O)C2CC(=O)N(c3ccc4c(c3)OCCO4)C2)n1 (stereo not drawn),1.8,-1,·,9214,-26,0,0
COc1ccccc1C(=O)NC1CCN(C(=O)Nc2ccc(C)cc2)CC1,1.1,8,-9,6239,-9,3,2
FC(F)(F)c1cnc(N/N=C/c2ccncc2)c(Cl)c1,·,·,1,5009,-19,·,·
CN(C)/C(=N\S(=O)(=O)c1ccc(Br)cc1)c1ccccc1,·,·,-15,4055,-3,·,·
O=C(COC(=O)c1cccc(S(=O)(=O)N2CCCCCC2)c1)NCc1ccc(Cl)cc1,3.3,15,·,4160,2,10,-5
COc1ccc(/C=C/c2cc(-c3ccc(C)cc3)o[n+]2C)cc1,96*,100*,63*,11045,-1,·,·
CCCN1CCN(CCCNC(=O)c2cc3c(s2)-c2ccccc2OC3)CC1,·,·,6,4633,21,·,·
COc1ccc(C(=O)N/N=c2\oc3ccccc3cc2C(N)=O)cc1,·,·,7,3567,-2,·,·
COc1ccc(CCNCc2cccn2C)cc1,2.1,1,-18,4281,-11,7,19
O=C(NN=C1CCCCCC1)c1cccs1,2.3,-1,5,5233,-4,-9,-7
CN(C)c1ccnc(-n2cccc2/C=N/OCc2cccc(F)c2)c1C#N,·,·,2,2602,-4,·,·

# Overlap with the part before: 7 compounds, then new ones.
SMILES,Sa RN4220 lethal,Sa ugtP lethal,BJeLR lethal,Bead autofluor,PrP UTR inh,Mtb hypoxia rep,Mtb hypoxia rep growth
O=C(COC(=O)c1cccc(S(=O)(=O)N2CCCCCC2)c1)NCc1ccc(Cl)cc1,3.3,15,·,4160,2,10,-5
COc1ccc(/C=C/c2cc(-c3ccc(C)cc3)o[n+]2C)cc1,96*,100*,63*,11045,-1,·,·
CCCN1CCN(CCCNC(=O)c2cc3c(s2)-c2ccccc2OC3)CC1,·,·,6,4633,21,·,·
COc1ccc(C(=O)N/N=c2\oc3ccccc3cc2C(N)=O)cc1,·,·,7,3567,-2,·,·
COc1ccc(CCNCc2cccn2C)cc1,2.1,1,-18,4281,-11,7,19
O=C(NN=C1CCCCCC1)c1cccs1,2.3,-1,5,5233,-4,-9,-7
CN(C)c1ccnc(-n2cccc2/C=N/OCc2cccc(F)c2)c1C#N,·,·,2,2602,-4,·,·
CSc1ccc(/C=N\NC(=O)CNc2ccc(C)cc2)cc1,·,·,10,7801,-21,·,·
O=C(CSc1nncc(=O)[nH]1)Nc1cccc([N+](=O)[O-])c1,4.6,8,-5,5191,-12,-8,-7
Cc1cccc(NC(=O)C2CCCC2)c1,4.3,11,-5,?,-16,-2,-2
COc1ccc(Cn2nnnc2C(c2cc3ccc(OC)cc3[nH]c2=O)N2CCCCCC2)cc1 (stereo not drawn),1.5,-3,1,22040*,-1,-7,16
COC(=O)c1sccc1NC(=O)CN(C)NS(=O)(=O)c1ccc([N+](=O)[O-])cc1,1.8,-9,-13,10095,20,1,10
COC(=O)c1ccc(Oc2c(C(F)(F)F)oc3c(CN4CCN(C)CC4)c(O)ccc3c2=O)cc1,6.9,7,0,2373,-15,3,-3
O=C(CCCC(=O)N(CC(=O)NC1CCCC1)Cc1ccccc1)Nc1ccccn1,2.8,-6,-1,?,-26,6,8
CC(=O)NC(CCS(C)(=O)=O)C(=O)Nc1nccs1 (stereo not drawn),2.9,2,-2,2850,-2,·,·
CCc1c(C2(O)CCCCC2)[nH]c2c(C(=O)OC)cc(Cl)cc12,·,·,-7,3609,-8,·,·
CCCCn1nnc(NC(=O)c2cc3ccccc3o2)n1,4.2,6,-11,3306,-42,·,·
O=C(CNC(=O)c1ccc(Cl)cc1Cl)NCc1ccccn1,0.8,5,·,2875,-6,7,3
Cc1ccnn1CC(=O)N/N=C/c1cccs1,·,·,-4,2013,-9,·,·
COc1ccc(C2NC(=O)NC(O)(C(F)(F)F)C2C(=O)c2ccccc2)cc1OC (stereo not drawn),1.5,1,-1,?,-12,1,3
CCOC(=O)c1sc(S(C)(=O)=O)c2c1CCc1conc1-2,2.7,4,-5,·,·,5,9
CS(=O)(=O)N1N=C(c2ccc(Cl)cc2)CC1c1cccs1 (stereo not drawn),3.8,3,-3,15923,-19,7,7
CC(=O)N1c2ccc(S(=O)(=O)NCCC(=O)Nc3ccccc3C)cc2CC1C (stereo not drawn),0.7,-3,13,4168,6,0,-6
CC(C)[C@H](NC(N)=O)C(=O)Nc1ccc2c(c1)CCC2,-2.5,1,-2,2890,-7,·,·
O=C(NN=Cc1ccc(Br)s1)c1ccc([N+](=O)[O-])cc1,-0.6,5,·,·,·,-3,6
CC(=NCCc1c(C)[nH]c2ccc(OCc3ccccc3)cc12)C1=C(O)CC(c2ccccc2)CC1=O (stereo not drawn),3.4,1,5,4059,-3,2,7
CC1(C)Cc2c(cnn2-c2cccc(F)c2)C(NC(=O)CCc2cnccn2)C1 (stereo not drawn),3.3,8,7,5031,-6,9,-2
CCN(CC)CCCNC(=O)c1cn(C)c(=O)c2c1c1ccccc1n2C,4.3,0,-4,3772,-7,-6,0
CCOc1ccc(NC(=O)Cc2c(C(=O)O)n(C)c3ccccc23)cc1,3.2,4,-12,3383,-16,9,9
CCOc1cccc(-c2nnc3sc(COc4ccc(C)cc4)nn23)c1,2.3,3,4,4870,4,·,·
CC(=O)Oc1ccc2oc(/C=C/N(C)C)c([N+](=O)[O-])c2c1,2.5,-10,14,6289,-46,·,·
NC(=O)CSC1=Nc2ccccc2C2=NC(c3ccccc3)C(=O)N12 (stereo not drawn),-1.7,-10,1,1992,-3,-2,2
O=C(NNS(=O)(=O)c1ccc(F)cc1)c1ccc([N+](=O)[O-])cc1Cl,-0.6,1,10,3560,-26,-10,-3
O=C(COc1ccccc1[N+](=O)[O-])N1CCN(C(=O)c2ccco2)CC1,·,·,4,6591,-18,·,·
COc1ccc(C(=O)NCCS(=O)(=O)NCc2ccccc2OC)cc1,4.4,4,-5,·,-34,-7,-6
Nc1[nH]c(=O)ncc1F,6.6,1,9,5397,0,7,3
CCOC(=O)NC(Nc1sc2c(c1C(=O)OC)CCN(C)C2)(C(F)(F)F)C(F)(F)F,6.0,7,-2,3012,-21,11,11
CN(C(=O)c1cncc(Br)c1)c1c(N)n(Cc2ccccc2)c(=O)[nH]c1=O,-0.4,13,-1,?,-12,4,0
O=C(CNC(=O)c1ccc(Br)o1)NNC(=O)c1cccc(Cl)c1,3.0,0,6,4194,-18,-2,-5
NC(=O)c1cnccn1,6.6,-1,0,6097,-8,12,4
O=C(NNC(=O)c1ccco1)c1cccc(Br)c1,-1.4,2,-1,5572,-15,0,-6
O=C(NCc1ccc(Cl)cc1)C1CCC(CNc2c(N3CCOCC3)c(=O)c2=O)CC1 (stereo not drawn),2.4,7,11,4761,-7,3,2
CC(=O)OCC1OC(OCc2cn(C[C@H]3CC[C@@H]([C@@H]4CC[C@H](Cn5cc(COC6OC(COC(C)=O)C(OC(C)=O)C(OC(C)=O)C6OC(C)=O)nn5)O4)O3)nn2)C(OC(C)=O)C(OC(C)=O)C1OC(C)=O (stereo partly drawn),·,·,-1,3349,0,·,·
O=C1OCCN1S(=O)(=O)Nc1ccccc1,4.0,6,8,4014,-12,2,-3
CCN(C[C@H]1N[C@@](CC)(C(=O)OC)[C@H]2C(=O)N(Cc3ccccc3)C(=O)[C@@H]12)S(=O)(=O)c1ccc(C(F)(F)F)cc1,4.9,-4,·,3286,0,-4,-3
N/C(=N\OC(=O)Cc1cccs1)c1ccccc1,9.2,5,-2,?,-62,7,5
O=C(OCC1OC2C(Oc3nc(=O)ccn32)C1O)c1ccccc1 (stereo not drawn),0.8,1,-5,3181,-10,10,-6
CO/N=C(/COc1ccc(F)cc1)c1ccc(OC)cc1,·,·,-4,3578,-7,·,·
Cn1c(CN2CCCCC2)nc2cc([N+](=O)[O-])ccc21,1.8,2,10,3929,-16,6,2
CCOC(=O)c1c(N=CN(C)C)sc(C(=O)OC)c1C,12,3,·,·,·,9,4
O=C(NN=Cc1cccnc1)c1cccc(Cl)c1,-0.2,8,·,·,·,4,3
NS(=O)(=O)c1cccc(NC(=O)CCSc2ccc(Cl)cc2)c1,-2.8,16,4,10141,-32,4,-2
N#Cc1ccc(C(=O)OCC(=O)N2CCOCC2)cc1,4.6,3,-6,3881,-17,-4,4
COc1cc(Cc2ccc(N)c(OC)c2)ccc1N,0.8,2,-4,2543,2,10,4
CC(=O)OCC1=C(C(=O)O)N2C(=O)C(NC(=O)CCn3nc(C)c(Cl)c3C)C2SC1 (stereo not drawn),99*,99*,-2,4183,-19,·,·
Cc1cc2cc(C)c(NCCNC(=O)c3ccccc3F)nc2cc1C,0.3,-8,-2,2512,-12,-14,-14
CCOCCCNC(=S)Nc1cc(C)cc(C)c1,5.8,4,5,2261,-5,11,3
COc1ccc(S(=O)(=O)N2CCCC(C(=O)NCc3cccnc3)C2)cc1 (stereo not drawn),-1.2,8,-11,4927,-14,-1,4
Cc1ccc(Cl)cc1N1CCN(C(=O)c2ccc3nc[nH]c3c2)CC1,0.5,-3,6,2107,6,12,1
COc1ccccc1NC(=O)COc1ccc2ccccc2c1,9.6,-3,-4,6282,-21,8,2
O=C(Nc1cccc(-c2nc3ccccc3s2)c1)c1ccc2c(c1)OCO2,1.5,-1,-1,9589,-19,13,15
Cc1nnc(SCc2nnc(-c3cccs3)o2)s1,9.4,5,1,3995,-30,17,10
COc1ccc2c(CC(=O)Nc3nccs3)coc2c1,1.6,2,1,4040,-39,17,0
CCCCn1c(N)c(N(CCC(C)C)C(=O)c2c(C)noc2C)c(=O)[nH]c1=O,0.9,6,13,·,-14,9,2
O=C(CCC1CCCC1)NNC(=O)c1ccc(F)cc1,5.7,2,·,3791,-13,5,3
O=C(NCCS(=O)(=O)N1CCN(Cc2ccccc2)CC1)c1ccc(F)cc1,0.1,6,-11,·,-14,-2,-6
CCN(CC)c1ccc(C(=O)NN=C(C)c2ccc(O)cc2)cc1,-3.6,0,·,·,·,2,10
COc1ccc(OC)c(S(=O)(=O)N2CCc3ccccc32)c1,-1.6,5,12,4100,-3,18,13
Cc1nc(NS(=O)(=O)c2ccccc2)sc1C(=O)NN,4.0,5,1,4549,-7,-2,-7
COc1ccc(C(=O)NCCCNC(=O)c2ccc(C)nc2)cc1,-2.0,7,-6,6090,-20,11,14

# Bioassay records from PubChem.

# Not a hit list; 3.9% or so of the library scored in one or more.
